# Screening results deposited in PubChem by National Center for Advancing Translational Sciences (NCATS).
# Anthrax LT inh – anthrax lethal toxin internalization inhibition; AID 912; Cells, anthrax lethal toxin internalization, FRET ratio (460/530); hit rate 0.67% among 70,000; Potency, µM (highest dose often 40 µM), for inactives: at the top dose activity change, negative = inhibition, usual class: inhibitors; active = well fitted falling ratio curve with the 530 nm signal flat; inconclusive = other ratio curves, or a change in one channel alone; inactive = flat curves in the ratio and both channels; the % refers to the ratio; note: % is set by controls: 0 for no effect and ±100 for the full control effect; nearly all actives have a fitted effect of over 50% in size; tested in ME-180 cells; beta-lactamase reporter
# SmPrx2 inh – inhibitors of Schistosoma mansoni peroxiredoxin 2. S. mansoni Prx2 activity coupled to TGR/GSH (TGR is thioredoxin glutathione reductase), NADPH fluorescence loss, qHTS; some inactives read as strong as hits. Potency, µM. hit rate 0.07% among 65,000. AID 448; active means full or partial inhibition curve with a strong effect at the top dose; inconclusive means weaker partial or single-point curve; inactive means no accepted curve; note: series up to 57 µM; many of its hits are not listed in these tables
#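 Activity is read as the drop in NADPH fluorescence (365/450 nm), recorded every 30 sec for 8 min after H2O2 addition. Prx2 is coupled to TGR-driven NADPH oxidation through glutathione, in phosphate buffer pH 7.4.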
# Numbers without * were called inactive; ? = inconclusive; / = not tested or not shown; & = joins results of further samples; [ ] = dose if it differs, or a comment. Potency is the fitted concentration of half-maximal effect. Not all compounds are listed (hit frequency here may not be typical).
SMILES,Anthrax LT inh,SmPrx2 inh
Cc1ccc(Cl)cc1N1CCN(Cc2nnnn2C2CCCCC2)CC1,-25%,>57
O=C(Nc1cc(C(=O)Nc2ccc(S(=O)(=O)O)cc2S(=O)(=O)O)cc(C(=O)Nc2ccc(S(=O)(=O)O)cc2S(=O)(=O)O)c1)Nc1cc(C(=O)Nc2ccc(S(=O)(=O)O)cc2S(=O)(=O)O)cc(C(=O)Nc2ccc(S(=O)(=O)O)cc2S(=O)(=O)O)c1,?,>26&>57
CCCn1c(C(O)c2ccc(OCC)cc2)nc2ccccc21 (configuration not stated),-3%,>57
CCc1c(C)c2ccc(O)c(CN(C)C)c2oc1=O,28%,/
CCOC(=O)N1CCN(C(=O)CSc2nc(-c3cccc(C)c3)ns2)CC1,27%,>57
CCN(CC)S(=O)(=O)c1ccc(C(=O)NCc2nnc(SCC(=O)OC)n2C)cc1,7%,>57
COCCNC(=O)CN(C(=O)CCC(=O)Nc1cc(C)on1)c1ccccc1C,-7%,>57
O=C(NCC(=O)N(Cc1cccs1)C(C(=O)NC1CCCC1)c1ccco1)c1cccs1 (configuration not stated),2%,>57
Cc1ccc2[nH]c(=O)c(CN(Cc3ccco3)S(=O)(=O)c3c(C)ccc4nsnc34)cc2c1,-3%,>57
COc1ccc(N2CCN(CCNS(=O)(=O)c3cccc4nsnc34)CC2)cc1,-4%,>57
CCOc1ccc(NC2=NC(C)(C)N=C(N)N2)cc1,1%,>57
COc1ccc(C(CNC(=O)c2cccnc2SC)N2CCOCC2)cc1 (configuration not stated),0%,>57
CCC(=O)c1cc2c(cc1NC(=O)C(C)C)OCCO2,?,>57
CC(=O)Nc1ccc(S(=O)(=O)NC(=O)C23CC4CC(CC(C4)C2)C3)cc1,-10%,/
CSc1ccc2c(c1)N(CCCN(C)C)c1ccccc1S2,-3%[8 µM],>57
CC(=O)c1cccc(NC(=O)Cc2cccs2)c1,-11%,/
CCn1c(C(O)c2ccc3c(c2)OCO3)nc2ccccc21 (configuration not stated),8%,>57
CCS(=O)(=O)N1Cc2ccccc2CC1C(=O)OCC(=O)Nc1ccc(C)cc1 (configuration not stated),-6%,>57
CCOC(=O)CSc1nnc([C@H](Cc2ccccc2)NC(=O)OC(C)(C)C)o1,/,>57
Cc1csc(NC(=O)c2cc3c(s2)-c2ccccc2OC3)n1,?,>57
CC(C(=O)c1ccccc1)n1c(N2CCOCC2)nc2c1c(=O)n(C)c(=O)n2C (configuration not stated),/,>57
CC(C)CN1CC2(CCN(C(=O)c3ccco3)CC2)C1,16%,>57
CC(=O)OCC1OC(C#CCCCc2ccccc2)C=CC1OC(C)=O (configuration not stated),?,/
COc1cc(OC)cc(C(C)=O)c1,7%,>57
COc1cc(Cl)cc(NC(=O)CCN2CCN(C)CC2)c1,-2%,>57
Cc1c2cnn(-c3ccccc3)c(=O)c2c(C)n1CCCC(=O)N1CCN(C)CC1,-4%,>57
c1ccc2c(c1)NC(CN1CCOCC1)CO2 (configuration not stated),4%,>57
COC(=O)COc1ccc(S(=O)(=O)NCc2cccnc2)cc1,-11%,>57
Cc1sc2ncnc(Oc3ccc(-n4ccnc4)cc3)c2c1C,6%,>57
Cc1ccc2c(c1)NC(=O)C(CC(=O)NCCN(CC(C)C)CC(C)C)O2 (configuration not stated),-6%,>57
Cc1cc2c(c(=O)n1Cc1cccnc1)C(c1ccc(F)cc1)C(C#N)=C(N)O2 (configuration not stated),8%,>57
OCCN1CCOCCN(CCO)CCN(CCO)CC1,16%,>57
CCc1c(C)[nH]c2ccccc2c1=O,9%,>57
CCOC(=O)N1CCN(C(=O)CSc2nnc(C3COc4ccccc4O3)o2)CC1 (configuration not stated),2%,>57
COc1ccc(S(=O)(=O)N2CCC(C(N)=O)(N3CCCCC3)CC2)cc1,13%,>57
Cc1oc(C(=O)O)cc1CSCc1ccoc1C(=O)O,-3%,/
Cc1nn(C)c(Cl)c1S(=O)(=O)N[C@@H](c1ccccc1)[C@]1(C)C[C@H]1[C@@H](C)C(=O)Nc1ccc2ccccc2c1,?,>57
CCNc1oc(COc2ccccc2F)nc1C#N,4%,>57
CC1C(c2ccccc2)N(C)CCC12NC(=O)NC2=O (configuration not stated),6%,>57
CCN1CCN(Cc2c(OC)ccc3ccccc23)CC1,?,>57
Cc1cc(C(F)F)n2nc(C(=O)Nc3cccc(C(F)(F)F)c3)nc2n1,-3%,>57
CCOc1cccc(Oc2ccc(C(F)(F)F)cn2)c1,-8%,>57
CN(C)c1ccc(Cc2ccc(N(C)C)cc2)cc1,?,/
COc1ccc2[nH]cc(CCNc3ncnc4ccc(-c5ccc(C(=O)N(C)C)cc5)cc34)c2c1,-21%,>57
CC(=O)NS(=O)(=O)c1ccccc1,-20%,>57
CCOc1ccccc1OCc1nn2c(-c3ccc(C)cc3)nnc2s1,-17%,>57
COC(=O)c1c(C(=O)NCc2ccccc2)ncn1CC(O)COc1ccccc1 (configuration not stated),-12%,>57
CCOc1ccc2[nH]c(=O)c(C(c3nnnn3C3CCCCC3)N3CCN(C)CC3)cc2c1 (configuration not stated),?,>57
CC(=O)c1ccc(Nc2ncnc3c2oc2ccccc23)cc1,1%,>57
CC(=O)Nc1cc(S(=O)(=O)C(F)(F)F)ccc1Cl,-2%,>57
Cc1c(-c2ccccc2)oc2cc(O)ccc2c1=O,-10%,>57
C[C@@H](C(=O)Nc1ccc2ccccc2c1)[C@H]1C[C@]1(C)[C@H](NC(=O)OCc1ccccc1)c1ccccc1,?,>57
Cc1noc(C)c1S(=O)(=O)NCc1ccc2c(c1)OCO2,-1%,>57
C=CCn1c(SCC(=O)Nc2ccccc2OC)nnc1-c1ccco1,-9%,>57
N[C@@H](CS(=O)O)C(=O)O,16%,>57
CC1CCN(c2nc3c(c(=O)[nH]c(=O)n3C)n2CCSc2nc3ccccc3o2)CC1,-5%,>57
O=C(Cc1cccs1)N1CCCC(c2nc(-c3ccc(S(=O)(=O)N4CCCC4)cc3)no2)C1 (configuration not stated),3%,>57
CN1C(C(=O)Nc2ccccn2)=C(O)c2sccc2S1(=O)=O,0%[3.58 µM],>57
COC(=O)C1=C(NC(=O)c2ccc(C)c(C)c2)CCS1,?,>57
Cn1c(=O)[nH]c(=O)c2c1nc(CN1CCN(c3ccc(F)cc3)CC1)n2CCCc1ccccc1,-8%,>57

# Further compounds.
SMILES,Anthrax LT inh,SmPrx2 inh
CCOc1ccc(N(CC(=O)NCCCOC)S(C)(=O)=O)cc1,-5%,/
O=C1OCCC1Sc1nnc(-c2ccc3c(c2)OCO3)n1-c1ccccc1 (configuration not stated),8%,>57
COCCNC(=O)c1ccc(N(C)S(=O)(=O)c2ccc(OC)c(OC)c2)cc1,2%,>57
CCOc1ccccc1N=C1NC(=O)CS1,3%,>57
CCNC(=O)Nc1cc2nc(C)n(Cc3ccc(Br)cc3)c2nc1C,-7%,>57
Cc1cc(C)c2[nH]c(=O)c(C(c3nnnn3CC3CCCO3)N3CCC(C)CC3)cc2c1 (configuration not stated),7%,>57
COC(=O)CCC(=O)Nc1ccc(S(=O)(=O)N2CCCCCC2)cc1,-7%,>57
Cc1cc(C)nc(NS(=O)(=O)c2cccs2)c1,6%,>57
CCCCOCCCNC(=O)c1ccccc1OCC,-11%,/
C[C@@H](c1ccccc1)N1C(=O)[C@H]2[C@H]3[C@H](O)[C@H](O)C/C(=N/OCc4ccccc4)[C@H]3CC[C@@H]2C1=O,-10%[8 µM],/
CC(CC1C(C#N)=C(N)SC(N)=C1C#N)c1ccccc1 (configuration not stated),-27%,>57
OCCCN=C1CCCCC1,-6%[8 µM],>57
Cc1ccc(Cl)cc1N1CCN(Cc2nc3c(c(=O)[nH]c(=O)n3C)n2CCc2ccccc2)CC1,-9%,>57
O=C(CC1COc2ccccc2O1)NCc1ccccc1 (configuration not stated),?,>57
COC(=O)c1sccc1NC(=O)CN1CCN(c2ccc(F)cc2)CC1,?,>57
O=C(Nc1ccc(NC(=O)C2CC2)nc1)c1ccccn1,-4%,>57
CN(C)c1ncnc2ccc(-c3ccccc3C(F)(F)F)cc12,-13%,>57
CCC(=O)N1CCCc2cc(S(=O)(=O)N3CCN(c4ccccn4)CC3)ccc21,1%,>57
OCCN1CCN(C(=S)c2ccc(Cl)cc2)CC1,1%,>57
CS(=O)(=O)c1ccc2nc(NC(=O)CN3CCCCCC3)sc2c1,7%,>57
COC(=O)c1c(NC(=O)c2c(C)noc2C)sc2c1CCCCCC2,-8%,>57
CCOc1ccc(C2C3=C(CCCC3=O)Nc3nc(C(F)(F)F)nn32)cc1OC (configuration not stated),10%,>57
CCOc1ccccc1N1C(=O)c2ccc(C(=O)Nc3cccnc3)cc2C1=O,-5%,>57
COc1ccc(N(C)C(=O)CCC(=O)Nc2ccc3nc(N4CCOCC4)cc(C)c3c2)c(OC)c1,6%,>57
CC(=O)c1c(C)[nH]c(C(=O)OC2CCOC2=O)c1C (configuration not stated),8%,>57
CCOC(=O)c1cccc(NC(=O)CSc2nnc(-c3ccncc3)n2CCCOC)c1,8%,>57
CCn1c(C)c2c(C)nnc(C)c2c1C,-3%,>57
Cc1ccc(S(=O)(=O)NC(=NCC(=O)O)c2ccccc2)cc1,6%,>57
CN1CCN(CC(C)(C)NS(=O)(=O)c2ccc(Cl)cc2)CC1,-9%,>57
CCBr,-12%,/

# Random excerpt: 5 entries already listed, in no set order.
SMILES,Anthrax LT inh,SmPrx2 inh
CCOc1ccccc1N1C(=O)c2ccc(C(=O)Nc3cccnc3)cc2C1=O,-5%,>57
CCBr,-12%,/
Cc1ccc(S(=O)(=O)NC(=NCC(=O)O)c2ccccc2)cc1,6%,>57
CCn1c(C)c2c(C)nnc(C)c2c1C,-3%,>57
OCCN1CCN(C(=S)c2ccc(Cl)cc2)CC1,1%,>57

# The listing continues.
SMILES,Anthrax LT inh,SmPrx2 inh
Cn1c(N)c(C(=O)COC(=O)Cn2cc(C(F)(F)F)ccc2=O)c(=O)n(C)c1=O,-1%,>57
CC(OC(=O)c1cccs1)C(=O)NCC1CCCO1 (configuration not stated),8%,>57
CC1(C)Cc2nc3n[nH]c(N)c3cc2CO1,-6%,>57
O=C(Oc1ccccc1)c1ccc(COC(=O)c2cnccn2)cc1,19%,>57
COC(=O)c1ccc(CSc2nnc3ccccn23)o1,-13%,>57
c1ccc2sc(SCCSc3nc4ccccc4s3)nc2c1,?,>57
CCCCN(c1ccccc1)S(=O)(=O)c1ccc2c(c1)CCN2C(=O)CCC(=O)O,-12%,>57
O=C(NCC1CCCO1)c1cc2ccccc2[nH]1 (configuration not stated),4%,>57
NS(=O)(=O)c1cccc2c1c([N+](=O)[O-])cc1[nH]c(=O)c(=O)[nH]c12,-7%,>57
CS(=O)(=O)N1CCC2(CC1)CN(Cc1ccc(C#N)cc1)C2,-12%,>57
O=c1[nH]c(SCc2n[nH]c(=S)n2-c2ccccc2)nc2ccccc12,8%,>57
CCCCS(=O)CC(CS(=O)CCCC)OC(=O)c1ccccc1 (configuration not stated),0%,/
Cc1c(C(=O)O)oc2c1C(O)CC(C)(C)C2 (configuration not stated),-14%,>57
CC1CCC(NC(=O)CN2C(=O)C3CCCN3c3ncc(Cl)cc32)CC1 (configuration not stated),?,>57
O=C1c2[nH]nc(-c3ccccc3O)c2C(c2cccc(Cl)c2)N1Cc1ccco1 (configuration not stated),?,>57

# Six structures from above, arranged by SMILES length, rising.
SMILES,Anthrax LT inh,SmPrx2 inh
CC1(C)Cc2nc3n[nH]c(N)c3cc2CO1,-6%,>57
CC(OC(=O)c1cccs1)C(=O)NCC1CCCO1 (configuration not stated),8%,>57
CC1CCC(NC(=O)CN2C(=O)C3CCCN3c3ncc(Cl)cc32)CC1 (configuration not stated),?,>57
O=c1[nH]c(SCc2n[nH]c(=S)n2-c2ccccc2)nc2ccccc12,8%,>57
O=C1c2[nH]nc(-c3ccccc3O)c2C(c2cccc(Cl)c2)N1Cc1ccco1 (configuration not stated),?,>57
CCCCN(c1ccccc1)S(=O)(=O)c1ccc2c(c1)CCN2C(=O)CCC(=O)O,-12%,>57

# The list goes on:
SMILES,Anthrax LT inh,SmPrx2 inh
CC1CN(S(=O)(=O)c2cn(C)c(=O)n(C)c2=O)CC(C)O1 (configuration not stated),-16%,>57
O=C(c1ccccc1Cl)N1CCCC(c2nc3c(nnn3Cc3ccccc3)c(=O)[nH]2)C1 (configuration not stated),-1%,>57
Cc1ccc2c(c1)-c1c(cnn1CC(=O)N(CCC#N)c1ccccc1)CO2,-20%,>57
COc1ccc(C(N)CCc2ccc(C)o2)cc1 (configuration not stated),5%,>57
CCCN(CCC)C(=O)c1ccc2c(c1)N(Cc1ccccc1)C(=O)CS2=O (configuration not stated),-6%,>57
N#C/C(=C(\O)C(=O)O)c1ccc(-c2cccc3ccccc23)cc1,?,>57
CN(C)S(=O)(=O)N1CCN(CC(O)COc2ccc3cc(Br)ccc3c2)CC1 (configuration not stated),?,>57
O=C1CC(c2ccc3c(c2)OCO3)Sc2nc3ccccc3n21 (configuration not stated),-15%,>57
O=c1[nH]c(SCc2ccccc2[N+](=O)[O-])nc2nc[nH]c12,-8%[8 µM],>57
Cc1cccc2cc3c(N)c(C#N)sc3nc12,1%,>57
COc1ccc(C2N3CC4(C)CN2CC(C)(C3)C4)cc1OC (configuration not stated),7%,>57
Cc1ccc(S(=O)(=O)NC(CC(=O)O)c2ccccc2)c(C)c1 (configuration not stated),-5%,>57
COc1ccc(CNc2nc(-c3cccnc3)nn2C(=O)c2cccs2)cc1,-1%,>57
